UCH37 DUB inh = inhibitors of human UCH37 deubiquitinase, primary screen, biochemical, Ub-AMC cleavage, fluorescence | purified proteasome/UCH37 | inhibition, % (test concentration not listed) | 330,000 tested, 0.33% active | AID 588478, 2011;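 active = mean of two replicates above 20%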;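 also: 0% = compound-free wells with enzyme and 100% = wells lacking proteasome; stock transfer was 100 nL into about 20 µL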
Target sequence (Q9Y5K5 whole entry, looked up): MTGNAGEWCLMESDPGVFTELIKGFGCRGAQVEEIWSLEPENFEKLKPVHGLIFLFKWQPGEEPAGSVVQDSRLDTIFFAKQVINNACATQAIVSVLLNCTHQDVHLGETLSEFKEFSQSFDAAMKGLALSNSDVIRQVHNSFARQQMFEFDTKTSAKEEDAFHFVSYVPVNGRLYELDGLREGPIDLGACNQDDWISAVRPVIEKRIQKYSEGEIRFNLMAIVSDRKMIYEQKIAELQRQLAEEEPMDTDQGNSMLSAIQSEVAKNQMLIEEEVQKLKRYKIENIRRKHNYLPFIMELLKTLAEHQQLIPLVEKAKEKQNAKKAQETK
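Schedule: 30 min plus 25 min, room temperature / Material: human UCH37 within purified proteasomes / Technique: AMC fluorescence intensity at 355/460 nm / Buffer or medium: pH 7.4 Tris-HCl (50 mM) with ovalbumin, ATP-MgCl2, DTT / Controls: wells without proteasome as full block, compound-free enzyme plus substrate as uninhibited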
E coli growth = E. coli growth inhibition, primary screen, OD600; Escherichia coli growth, 23 h; stronger effect = lower value; OD600 absorbance (concentration not given with the values); 330,000 tested, 0.21% active;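 active = OD600 absorbance below the run mean of sample wells minus 3.6 SD, in any replicate, cut at about 0.56 in these data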;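 also: stock transfer was 300 nL into about 60 µL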
MLL AF4-AF9 inh = inhibitors of AF4 peptide binding to AF9, primary screen, biochemical, AlphaScreen, biotin-AF4 peptide, FLAG-AF9, single point. Protein AF-9 (Homo sapiens), P42568. 350,000 tested, 0.47% active. inhibition, % at 10 µM. AID 651704, 2012;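 active = every replicate reaching a set inhibition limit, whatever the replicate mean, cut at about 25% in these data; inconclusive = mean inhibition reaches that limit but some replicates miss it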;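 also: 0% = plate neutral control median and 100% = total signal loss; the record names both 10 and 1 µM as test concentration; the first replicate is given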
Target sequence (P42568 whole entry, looked up): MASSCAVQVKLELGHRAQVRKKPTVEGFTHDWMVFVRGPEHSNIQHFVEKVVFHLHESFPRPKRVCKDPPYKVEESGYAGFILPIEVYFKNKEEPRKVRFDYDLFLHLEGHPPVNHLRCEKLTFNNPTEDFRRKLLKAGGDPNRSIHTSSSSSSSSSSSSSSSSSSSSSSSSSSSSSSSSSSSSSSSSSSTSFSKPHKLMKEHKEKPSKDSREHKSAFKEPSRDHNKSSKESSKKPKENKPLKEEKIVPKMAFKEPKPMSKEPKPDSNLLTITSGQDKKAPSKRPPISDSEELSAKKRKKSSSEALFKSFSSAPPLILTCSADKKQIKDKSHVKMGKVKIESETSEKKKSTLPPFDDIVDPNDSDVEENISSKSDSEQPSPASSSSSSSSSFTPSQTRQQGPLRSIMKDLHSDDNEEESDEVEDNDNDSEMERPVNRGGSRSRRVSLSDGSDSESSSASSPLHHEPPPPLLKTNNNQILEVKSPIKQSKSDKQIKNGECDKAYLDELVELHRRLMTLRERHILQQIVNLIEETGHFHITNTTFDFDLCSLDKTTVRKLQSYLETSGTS
FGF22 binding = binders of human FGF22 protein, primary screen, FGF22 synaptogenesis inhibitor project, biophysical, thermal shift, single point. Fibroblast growth factor 22 (Homo sapiens), Q9HCT0. recombinant FGF22 thermal shift, SYPRO orange fluorescence; percent of sucrose octasulfate shift, DMSO zero. 340,000 tested, 1.5% active. calls only at 9.99 µM;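 active = melting point raised past a set limit in the mean and every replicate; inconclusive = no clear call; three in four hits are not shown here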
Target sequence (Q9HCT0 whole entry, looked up): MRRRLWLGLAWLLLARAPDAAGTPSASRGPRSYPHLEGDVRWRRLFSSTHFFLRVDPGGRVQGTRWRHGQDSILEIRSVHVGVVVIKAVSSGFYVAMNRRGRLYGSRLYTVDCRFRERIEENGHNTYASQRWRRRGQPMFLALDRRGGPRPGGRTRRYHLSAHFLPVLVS
Beta cell apopt = inhibitors of cytokine-induced beta cell apoptosis, primary screen, luminescence. INS-1E cytokine-induced death, ATP luminescence, 48 h; percent of positive-control rescue, neutral wells zero. protection from apoptosis, % (concentration not given with the values). 300,000 tested, 0.8% active. AID 435005, 2010;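 active = all replicates at 75% or more, or half of them and the mean; inconclusive = half reach 75% but not the mean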;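 also: 0% = cytokine-treated negative control wells and 100% = positive control rescue; higher means more ATP so stronger rescue from cytokine killing; wells of about 40 µL received 100 nL stock; the first replicate is given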
Bfl-1 A1 inh = caspase 3/7 activation in MEF A1-2A-BIM cells, primary screen, A1 inhibitor project, cell-based, luminescence, HTS | Caspase-Glo 3/7 luminescence, 3 h; percent of clofoctol response, vehicle zero | caspase activation, % (no concentration beside the values) | 330,000 tested, 0.066% active;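 active = over half of replicate activation scores above 10%, or exactly half above 10 with the replicate mean above 10; inconclusive = replicate mean below 10 yet half the replicates above 10; inactive = over half of replicates below 10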;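 also: wells of about 30 µL received 50 nL stock; many hits fall short of the cut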
T cruzi repl = inhibitors of intracellular T. cruzi growth, primary screen, luminescence, NIH3T3 host cells; T. cruzi beta-gal in NIH3T3, 90 h; inhibition, % (no concentration beside the values); 300,000 tested, 1.4% active; AID 1885, 2009;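 active = mean inhibition across valid replicates above about 55%, limit read from the data; inconclusive = mean below that limit but half or more replicates reach it; inactive = mean below it, under half of replicates reach it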;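 also: signal also drops with host cell toxicity which is not excluded here; 0% = plate median of DMSO wells and 100% = zero luminescence signal; higher percent means less beta-gal luminescence so fewer parasites; stock transfer was 50 nL into about 50 µL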
Ecoli rRNA inh = reduced GFP signal of wild-type E. coli, primary screen, bacterial rRNA inhibitor project, GFP/RFP fluorescence, OD600, single point | E. coli WT GFP vs humanized-ribosome RFP mutants, 24 h; stronger effect = lower value; DMSO median 0, no signal -100 | GFP signal change (wild-type ribosome), % (test concentration not listed) | 350,000 tested, 1.6% active | AID 720706, 2013;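 active = significant combined selectivity score with lowered wild-type GFP, culture density cut under 30%, mutant RFP and density less affected; inactive = any of these conditions unmet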; also: one replicate is shown; some compounds called inactive have numbers as strong as hits
Ecoli rRNA inh OD600 = further read-out of Ecoli rRNA inh, marked with its call; OD600 change, %; measured here: OD600 growth;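 optical density of the mix in the first replicate; 0 = DMSO median and -100 = no signal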
Ecoli rRNA inh RFP = recorded beside Ecoli rRNA inh, whose call it bears; RFP signal change, %; measured here: RFP humanized mutant strains;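 first replicate; 0 = DMSO median and -100 = no signal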
Active calls of the source: *. Only part of the results is shown; count on the stated rates, not on these rows.

Screening O=C(c1cc(-c2cccc(O)c2)on1)N1CCc2ccccc2C1 returned UCH37 DUB inh 5.5, E coli growth 0.72, MLL AF4-AF9 inh -4.2, FGF22 binding inactive, Beta cell apopt -6, Bfl-1 A1 inh -0.9, T cruzi repl -1, Ecoli rRNA inh -55, Ecoli rRNA inh OD600 -79 and Ecoli rRNA inh RFP -16.
CCCNC(=O)Nc1ccsc1C(=O)OC was read as UCH37 DUB inh 1.7, E coli growth 0.7, MLL AF4-AF9 inh -1.0, FGF22 binding inactive, Beta cell apopt 0, Bfl-1 A1 inh 0.1, T cruzi repl -19, Ecoli rRNA inh 8, Ecoli rRNA inh OD600 4 and Ecoli rRNA inh RFP -1.7.
`O=C(Nc1ccc2c(c1)OCCO2)c1ccc(Br)s1` gave UCH37 DUB inh 0.7, E coli growth 0.62, MLL AF4-AF9 inh -0.9, FGF22 binding inactive, Beta cell apopt -2, Bfl-1 A1 inh -4.7, T cruzi repl 1, Ecoli rRNA inh -1, Ecoli rRNA inh OD600 24 and Ecoli rRNA inh RFP -0.2.
For CCOC(=O)c1c(-c2ccco2)csc1NC(=O)COC(=O)c1cnc(C)cn1 the results were UCH37 DUB inh -3.5, E coli growth 0.69, MLL AF4-AF9 inh -5.1, FGF22 binding inactive, Beta cell apopt -4, Bfl-1 A1 inh -0.2, T cruzi repl -4, Ecoli rRNA inh -1, Ecoli rRNA inh OD600 0 and Ecoli rRNA inh RFP 2.3.
OC(CNCc1ccc(F)cc1)(c1ccc(F)cc1)c1ccc(F)cc1 was read as UCH37 DUB inh -1.4, E coli growth 0.71, Beta cell apopt -15, Bfl-1 A1 inh -0.4 and T cruzi repl 13.
`Cc1cc(C(=O)NNS(=O)(=O)c2cc(C(=O)O)ccc2Cl)c(C)n1-c1ccccc1` gave UCH37 DUB inh 0.9, E coli growth 0.68, MLL AF4-AF9 inh 2.1, FGF22 binding inactive, Beta cell apopt 2, Bfl-1 A1 inh 0.5, Ecoli rRNA inh 0, Ecoli rRNA inh OD600 16 and Ecoli rRNA inh RFP 0.1.
For CC1(C)C(=O)Nc2ccccc2N1C(=O)COC(=O)c1cc(Cl)cc(Cl)c1 the results were UCH37 DUB inh 1.7, E coli growth 0.71, MLL AF4-AF9 inh 3.3, FGF22 binding inactive, Beta cell apopt 2, Bfl-1 A1 inh 0.9, Ecoli rRNA inh -54, Ecoli rRNA inh OD600 -79 and Ecoli rRNA inh RFP -12.
`CCN(CC)C(=O)CSc1nnc(-c2cc(-c3ccc(Cl)cc3)nc3ccccc23)o1` gave UCH37 DUB inh -61, E coli growth 0.71, MLL AF4-AF9 inh 2.9, FGF22 binding inactive, Beta cell apopt 2, Bfl-1 A1 inh 0.2, T cruzi repl 4, Ecoli rRNA inh 5, Ecoli rRNA inh OD600 5 and Ecoli rRNA inh RFP -5.8.
O=Cc1ccc(-n2cncn2)cc1 was read as UCH37 DUB inh 1.8, E coli growth 0.71, MLL AF4-AF9 inh -1.4, FGF22 binding inactive, Beta cell apopt 1, Bfl-1 A1 inh 0.5, T cruzi repl -10, Ecoli rRNA inh 0, Ecoli rRNA inh OD600 4 and Ecoli rRNA inh RFP -1.3.
COc1cc(C(C[N+](=O)[O-])c2c(-c3ccccc3)cc3ccccn23)cc(OC)c1OC (centres undefined) was read as UCH37 DUB inh -11, E coli growth 0.73, Beta cell apopt -8, Bfl-1 A1 inh 0.4 and T cruzi repl 19.
CCN(CC(=O)NCc1ccc(Cl)cc1)C(=O)Cc1ccccc1[N+](=O)[O-] was read as UCH37 DUB inh 1.5, E coli growth 0.69, MLL AF4-AF9 inh -1.7, FGF22 binding inactive, Beta cell apopt -4, Bfl-1 A1 inh 0.7, T cruzi repl 3, Ecoli rRNA inh -6, Ecoli rRNA inh OD600 -9 and Ecoli rRNA inh RFP -0.8.
CC1(C)CC(=O)C(C(C2=C(O)CC(C)(C)CC2=O)c2cccnc2)C(=O)C1 (centres undefined) was read as UCH37 DUB inh 1.5, E coli growth 0.78, Beta cell apopt -4, Bfl-1 A1 inh 0.0 and T cruzi repl -7.
For COc1ccc(CCNC(=O)C2CC3Cn4c(nc5cc(C)c(C)cc54)C3N2C)cc1 (centres undefined) the results were UCH37 DUB inh 0.7, E coli growth 0.64, MLL AF4-AF9 inh 4.9, FGF22 binding inactive, Beta cell apopt -1, Bfl-1 A1 inh 0.0, T cruzi repl -8, Ecoli rRNA inh 3, Ecoli rRNA inh OD600 10 and Ecoli rRNA inh RFP -0.3.
`CCOC(=O)c1sc2ncnc(Nc3cccc(C(=O)O)c3)c2c1C` gave UCH37 DUB inh 6.4, E coli growth 0.72, MLL AF4-AF9 inh -1.3, FGF22 binding inactive, Beta cell apopt 1, Bfl-1 A1 inh 0.5, T cruzi repl -5, Ecoli rRNA inh -13, Ecoli rRNA inh OD600 -8 and Ecoli rRNA inh RFP -0.5.
For O=C(COC(=O)c1ccncc1)NCc1ccccc1 the results were UCH37 DUB inh -2.2, E coli growth 0.76, Beta cell apopt 4, Bfl-1 A1 inh 0.3, T cruzi repl -14, Ecoli rRNA inh 7, Ecoli rRNA inh OD600 7 and Ecoli rRNA inh RFP -1.9.
Screening Cc1ccc2c(C)ccc(O)c2n1 returned UCH37 DUB inh -2.3, E coli growth 0.7, Beta cell apopt inconclusive, Bfl-1 A1 inh 0.8 and T cruzi repl -23.
CCc1ccccc1NC(=O)/C(=C/c1ccco1)c1ccccc1 was read as UCH37 DUB inh 3.9, E coli growth 0.68, Beta cell apopt -16, Bfl-1 A1 inh -0.8 and T cruzi repl 18.
`Cc1ccc(N2C(=O)C(Cl)=C(N3CCN(C)CC3)C2=O)c(C)c1` gave UCH37 DUB inh 1.9, E coli growth 0.68, Beta cell apopt -11, Bfl-1 A1 inh 0.3 and T cruzi repl 8.
For Cc1cc(C)n(CC(O)Cn2c(C)c(C)c3ccccc32)n1 (centres undefined) the results were UCH37 DUB inh 4.2, E coli growth 0.74, Beta cell apopt 1, Bfl-1 A1 inh 0.5 and T cruzi repl 1.
Cc1cc(=O)n2c(sc3ccccc32)c1C#N was read as UCH37 DUB inh -59, E coli growth 0.67, MLL AF4-AF9 inh -0.5, FGF22 binding inactive, Beta cell apopt -3, Bfl-1 A1 inh 0.6, T cruzi repl -9, Ecoli rRNA inh 10, Ecoli rRNA inh OD600 8 and Ecoli rRNA inh RFP 1.5.
For COC(=O)C1=C(C)NC(=O)C1(NC(=O)c1ccncc1)C(F)(F)F (centres undefined) the results were UCH37 DUB inh 6.2, E coli growth 0.72, MLL AF4-AF9 inh -1.5, FGF22 binding inactive, Beta cell apopt -3, Bfl-1 A1 inh 1.7, T cruzi repl -24, Ecoli rRNA inh 1, Ecoli rRNA inh OD600 2 and Ecoli rRNA inh RFP -0.2.
Screening CC(C)(C)C(=O)Nc1cccc(S(=O)(=O)NC2=NCCC2)c1 returned UCH37 DUB inh 2.3, E coli growth 0.7, MLL AF4-AF9 inh 0.3, FGF22 binding inactive, Beta cell apopt -7, Bfl-1 A1 inh -0.2, T cruzi repl 13, Ecoli rRNA inh 10, Ecoli rRNA inh OD600 9 and Ecoli rRNA inh RFP -1.4.
For Nc1ccc(N2CCOCC2)cc1C(F)(F)F the results were UCH37 DUB inh 0.8, E coli growth 0.69, MLL AF4-AF9 inh -2.0, FGF22 binding inactive, Beta cell apopt 3, Bfl-1 A1 inh -0.4, T cruzi repl -14, Ecoli rRNA inh 7, Ecoli rRNA inh OD600 -20 and Ecoli rRNA inh RFP -3.0.
COc1ccccc1N1CCN(/N=C/c2cccc(Cl)c2)CC1 was read as MLL AF4-AF9 inh 27*, FGF22 binding inactive, Beta cell apopt 0, Bfl-1 A1 inh -0.4, T cruzi repl 0, Ecoli rRNA inh -21, Ecoli rRNA inh OD600 -21 and Ecoli rRNA inh RFP -1.2.
`COc1cccc(NC(=O)CCCN2C(=O)C3CC=CCC3C2=O)c1` (centres undefined) gave UCH37 DUB inh 2.9, E coli growth 0.68, MLL AF4-AF9 inh -0.8, FGF22 binding inactive, Beta cell apopt -5, Bfl-1 A1 inh 1.9, T cruzi repl -11, Ecoli rRNA inh 10, Ecoli rRNA inh OD600 10 and Ecoli rRNA inh RFP 2.2.
`Oc1ccc(-c2csc(Nc3ccccn3)n2)cc1` gave UCH37 DUB inh -0.5, E coli growth 0.69, MLL AF4-AF9 inh -18, FGF22 binding inactive, Bfl-1 A1 inh -3.0, T cruzi repl 31, Ecoli rRNA inh -20, Ecoli rRNA inh OD600 -10 and Ecoli rRNA inh RFP -1.7.
`Cc1nc(SCC(=O)N2CCOCC2)c2c3c(sc2n1)CCC3` gave UCH37 DUB inh 2.9, E coli growth 0.68, MLL AF4-AF9 inh -1.9, FGF22 binding inactive, Beta cell apopt 3, Bfl-1 A1 inh 0.0, Ecoli rRNA inh 13, Ecoli rRNA inh OD600 13 and Ecoli rRNA inh RFP 5.6.
Screening Cc1ccc(C2CC(c3cccc(C)c3)n3nc(N)nc3N2)cc1 (centres undefined) returned UCH37 DUB inh -8.1, E coli growth 0.72, MLL AF4-AF9 inh 0.0, FGF22 binding inactive, Beta cell apopt 101*, Bfl-1 A1 inh 0.6, T cruzi repl 36, Ecoli rRNA inh -13, Ecoli rRNA inh OD600 -18 and Ecoli rRNA inh RFP 5.0.
CCOc1cc(CNn2c(C)nnc2SCC(=O)NC(C)(C)C)ccc1OCC(=O)NC(C)(C)C was read as UCH37 DUB inh 0.4, E coli growth 0.73, MLL AF4-AF9 inh 0.5, Beta cell apopt 8, Bfl-1 A1 inh 0.2, T cruzi repl 7, Ecoli rRNA inh -2, Ecoli rRNA inh OD600 -7 and Ecoli rRNA inh RFP 1.1.
CN1CCN(c2ccc(S(=O)(=O)N3CCCCC3)cc2NC(=O)c2ccc3ccccc3c2)CC1 was read as UCH37 DUB inh 5.3, E coli growth 0.69, Beta cell apopt 1, Bfl-1 A1 inh 0.0 and T cruzi repl 52.
Screening CC1=CC(=O)C(C(C)C)=C/C1=N/OS(=O)(=O)c1ccccc1 returned MLL AF4-AF9 inh 17, FGF22 binding inactive, Beta cell apopt 105*, Bfl-1 A1 inh 27* and T cruzi repl 53.
For CCN(CC)S(=O)(=O)N1CCC(C(=O)NC(C)CCc2ccccc2)CC1 (centres undefined) the results were UCH37 DUB inh 0.5, E coli growth 0.67, Beta cell apopt 10, Bfl-1 A1 inh -0.1 and T cruzi repl -2.
`Cc1ccccc1-c1nc(Cc2ccc(Cl)cc2)no1` gave UCH37 DUB inh 1.4, E coli growth 0.7, Beta cell apopt 4, Bfl-1 A1 inh -2.6 and T cruzi repl -4.
For O=C(CCc1c[nH]c2ccccc12)NCC1CCCO1 (centres undefined) the results were UCH37 DUB inh 1.2, E coli growth 0.7, Bfl-1 A1 inh 0.8 and T cruzi repl -1.

Screening results from PubChem BioAssay.
